# FPR binding: FPR binders displacing fluorescent formyl peptide, primary screen, U937-FPR cells, fMLFK-FITC, flow cytometry (AID 362); U937-FPR cells, fMLFK-FITC displacement, flow cytometry; active compounds read high; test concentration not given here; most inactive calls were filed without a number and no value below 0 was filed; inhibition, %; 4,300 compounds, 1% hits;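 active = inhibition of labelled peptide binding to the formyl peptide receptor of at least 65%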;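 note: plate controls were buffer control wells for no effect and unlabeled fMLFF blocking peptide for full effect; higher means less cell fluorescence so more probe displaced; part of the set was picked by virtual screening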
# Calls only; i = inactive. Not all compounds are listed; count on the stated rates, not on these rows.
SMILES,FPR binding
NS(=O)(=O)c1cc2c(cc1C(F)(F)F)NC(Cc1ccccc1)NS2(=O)=O (centres undefined),i
CC1(C)OC2CC3C4CC(F)C5=CC(=O)C=CC5(C)C4(F)C(O)CC3(C)C2(C(=O)CO)O1 (centres undefined),i
